Screening data from PubChem BioAssay.
Sfp PPTase inh – inhibitors of Bacillus subtilis Sfp phosphopantetheinyl transferase. Potency, µM, inactives show max response, negative = inhibition, actives largely listed as inhibitors. 310,000 tested, 3.5% active. Biochemical Sfp PPTase activity, qHTS; active = well fitted inhibition curve with a large enough effect; inconclusive = small, poorly fitted or top-dose-only effect, or another doubt; inactive = no such curve, though single readings can be large or run the other way;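 note: the enzyme is Sfp with the accession as filed and its product quenches rhodamine fluorescence; potency is the fitted concentration of half-maximal effect; 0% = enzyme reaction without inhibitor and -100% = no enzyme wells; top concentration of the series not given in the record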
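Fluorescence-quenching assay: 15 nM Sfp-PPTase preincubated 15 min at room temperature with compound, then 5 uM rhodamine-CoA and 12.5 uM BHQ-2-labelled YbbR peptide added. Fluorescence (ex 525/em 598 nm) read at start and after 30 min; difference gives rate.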
CtBP-E1A blk – inhibitors of CtBP/E1A interaction; AlphaScreen GST-E1A/His-CtBP binding, 1536-well; hits give low values; control for the full effect not named in the record; activity change, % (test concentration not listed); 340,000 tested, 0.49% active; in the data active means activity change below about -65%; inconclusive means about -30% to -65%; inactive means above about -30%; note: % is set by controls: 0 for no effect and ±100 for the full control effect; compound concentration not given in the record
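In 5 uL wells, 23 nL compound meets equimolar GST-E1A and His-CtBP (5X stock 125 nM each) for 2 h, 37 °C. Beads (5X, 50 ug/mL) then 1 h, 37 °C, dark.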
TRPV1 potentiator – enhances activation of the human vanilloid receptor TRPV1; Q8NER1; TRPV1-expressing cells, Fluo-8 calcium influx, capsaicin EC20 potentiation; host cell line not named in the record; control for the full effect not named in the record; potentiation, % at 8.33 µM; 320,000 tested, 0.02% active; AID 540277; active means potentiation above 80%; inconclusive means 30% to 80%; inactive means below 30%; note: 0% is about no effect
Target sequence (Q8NER1 whole entry, looked up): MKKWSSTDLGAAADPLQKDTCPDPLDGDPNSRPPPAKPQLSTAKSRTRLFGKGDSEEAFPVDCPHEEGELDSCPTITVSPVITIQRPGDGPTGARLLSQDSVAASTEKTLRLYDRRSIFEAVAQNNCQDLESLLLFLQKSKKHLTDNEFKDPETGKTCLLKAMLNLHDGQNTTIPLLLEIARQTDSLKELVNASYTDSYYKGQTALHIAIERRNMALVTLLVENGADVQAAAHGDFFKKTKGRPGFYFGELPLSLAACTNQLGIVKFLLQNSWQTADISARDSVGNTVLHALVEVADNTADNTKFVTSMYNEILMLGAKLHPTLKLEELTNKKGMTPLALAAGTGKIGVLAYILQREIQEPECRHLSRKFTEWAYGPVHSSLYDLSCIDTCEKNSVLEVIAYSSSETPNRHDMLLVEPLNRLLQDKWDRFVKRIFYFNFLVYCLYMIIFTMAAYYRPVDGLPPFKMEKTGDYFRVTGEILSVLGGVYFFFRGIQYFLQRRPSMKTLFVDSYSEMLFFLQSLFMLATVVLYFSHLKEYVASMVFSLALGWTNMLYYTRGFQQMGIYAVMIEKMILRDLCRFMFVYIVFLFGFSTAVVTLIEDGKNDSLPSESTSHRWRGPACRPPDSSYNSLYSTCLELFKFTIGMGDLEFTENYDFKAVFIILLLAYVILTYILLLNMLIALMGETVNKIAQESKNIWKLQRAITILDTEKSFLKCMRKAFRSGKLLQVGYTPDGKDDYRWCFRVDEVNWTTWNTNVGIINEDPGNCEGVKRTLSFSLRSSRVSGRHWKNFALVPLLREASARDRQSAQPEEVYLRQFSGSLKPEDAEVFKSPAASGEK
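Cells expressing TRPV1 were dye-loaded with Fluo-8 and read kinetically: 10 s baseline, 3 min after compound (agonist portion), then 2 min after EC20 capsaicin (allosteric enhancer portion). Calcium-bound dye fluorescence at 480/520 nm.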
gsp ag – gsp mutant agonism. AID 624287. Potency, µM (series often up to 76.9 µM), for the others: at the highest dose activation (cAMP increase), most hits filed as activators. gsp mutant cells, cAMP HTRF, 30 min; control for the full effect not named in the record. 340,000 tested, 0.13% active; active = well fitted activation curve with a large enough effect; inconclusive = small, poorly fitted or top-dose-only effect, or another doubt; inactive = no such curve, though single readings can be large or run the other way; cell line not stated here;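 note: phosphodiesterase inhibitor Ro 20-1724 added with compounds to block cAMP breakdown; potency is the fitted concentration of half-maximal effect; nearly all actives have a fitted effect of over 60% in size; about a fifth of the inactives were tested at one dose only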
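Cells stably selected in G418 were plated at 2000/well, grown 16-24 hr, then given compounds in DMSO with the PDE inhibitor […] (300 uM solution added) for 30 min at 37C; cAMP was read by HTRF.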
gsp antagonist – antagonizes gsp, the McCune-Albright syndrome mutation; gsp-mutant cells, cAMP HTRF, 30 min; control for the full effect not named in the record; Potency, µM (series often up to 76.9 µM), without a hit: at the top dose activity change, negative = inhibition, hits mostly inhibitors; 340,000 tested, 0.4% active; active = falling curve of any shape with a large fitted effect; inconclusive = falling curve, mostly with a smaller effect; inactive = flat or rising curve; cell line not stated here;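 note: intracellular cAMP measured with PDE inhibitor Ro 20-1724 present during compound exposure; potency is the fitted concentration of half-maximal effect; % is set by controls: 0 for no effect and ±100 for the full control effect; nearly all actives have a fitted effect of over 65% in size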
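HTRF cAMP measurement after 30 min RT detection following 30 min, 37C compound treatment alongside […] (added as 300 uM solution) in G418-selected cells seeded at 2000/well and grown 16–24 h.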
Menin-MLL FL inh – displaces fluorescein MLL peptide from human menin; 290,000 tested, under 10 active; FP activity change, % at 61.4 µM; Fluorescence polarization, fluorescein-MLL peptide displacement from menin; inconclusive = falling polarisation curve, or a change in total fluorescence; inactive = total fluorescence flat and polarisation flat or rising; no compound was filed as active; the % refers to the polarisation; negative = inhibition;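 note: % of control where 0% means no effect; inhibitors lower the polarisation; unlabelled MLL peptide was the positive control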
ClpP mod – qHTS Assay for Activators of ClpP; ATP-dependent Clp protease proteolytic subunit (Bacillus subtilis (strain 168)), P80244; purified B. subtilis ClpP, FRET peptide cleavage, 20 min; Potency, µM (doses to about 57.5 µM), inactives show top-dose activity change, negative = active; 340,000 tested, 1.9% active; AID 651965, 2013; active = well fitted falling curve with a large enough effect; inconclusive = small, poorly fitted or top-dose-only effect; inactive = no such curve, though single readings can be large or run the other way; note: potency is the fitted concentration of half-maximal effect; the source files actives as falling curves though it sought activators and does not explain the sign; nearly all actives have a fitted effect of over 65% in size; many hits overshoot -100%
Target sequence (P80244 whole entry, looked up): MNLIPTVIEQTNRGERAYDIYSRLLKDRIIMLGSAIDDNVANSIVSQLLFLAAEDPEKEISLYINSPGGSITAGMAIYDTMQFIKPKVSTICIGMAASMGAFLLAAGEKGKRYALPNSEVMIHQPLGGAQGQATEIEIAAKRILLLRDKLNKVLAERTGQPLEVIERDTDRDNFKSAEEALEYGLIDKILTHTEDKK
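Purified B. subtilis ClpP, 10 microg/mL final in Tris/HCl pH8 with KCl, BSA, glycerol and Tween-20, cleaved an Abz/nitrotyrosine-quenched decapeptide. Fluorescence (ex 320, em 430) was read at 0 and 20 min at room temperature. Delta was normalized to 5.8 microM ADEP and DMSO/no-enzyme controls.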
An asterisk follows results filed as active; u = inconclusive; x = not tested or not shown; [ ] = dose if it differs, or a comment.

SMILES	Sfp PPTase inh	CtBP-E1A blk	TRPV1 potentiator	gsp ag	gsp antagonist	Menin-MLL FL inh	ClpP mod
Cc1cccn2c(=O)c3cc(C#N)c(=NC(=O)c4ccccc4)n(Cc4ccco4)c3nc12	x	u	x	15%	u	x	x
CCOc1cc(C)nc(N2CCN(C3CCCCC3)CC2)n1	2%	47	-8	5%	-7%	-2.5	-0.4%
COc1ccccc1CN(C)C(=O)c1sccc1-c1ccccc1	-7%	0	2	1%[15.4 µM]	-26%	x	u
CN(C)C(CNC(=O)CNC(=O)c1ccc(Br)cc1)c1ccccc1 (stereo not given)	-25%	-20	0	-4%[15.4 µM]	-5%	3.9	x
COc1cc(C)c(S(=O)(=O)n2nnc3ccccc32)cc1C	6%	2	2	-12%	8%	-2.2	-0.2%
COc1ccc(CNC(=O)c2cc(-c3cc(C)ccc3O)n[nH]2)cc1	-18%	5	-8	-7%	-3%	6.8	x
Cc1sc2c(c1C)c(=O)nc1scc(CC(=O)O)n12	20%	-3	8	u	5%	0.3	-0.2%
COc1ccc(-n2c(SC)nc(O)cc2=O)cc1	-14%	-1	-18	-33%[inhibitor]	-8%	5.3	0.1%
CCN(CC)CCNC(=O)CCn1c(=S)[nH]c2cc3c(cc2c1=O)OCO3	-12%	3	-4	-53%[inhibitor]	6%	3.7	-6.4%
Cc1sc2ncn(CC(=O)NCc3ccccc3)c(=O)c2c1C	-2%	17	-4	u	2%	3.9	-0.8%
O=c1cc(CSc2nnc(COc3ccccc3)n2-c2ccccc2)c2ccccc2[nH]1	0%	-14	-4	-2%	-11%	1.5	-0.3%
CSCCC(NS(=O)(=O)c1ccc(Cl)cc1)C(=O)OCC(=O)N1CCCc2ccccc21 (stereo not given)	13%	-2	30	-33%[inhibitor]	-25%	-2.7	x
CCOc1ccc(C(F)(F)F)cc1NC(=O)COc1ccc(C(F)(F)F)cc1[N+](=O)[O-]	21%	-3	0	-27%	11%	0.0	0.4%
CCCCNC(=S)Nc1ccc2nc(N3CCN(CC)CC3)cc(C)c2c1	-13%	-8	-12	19%[15.4 µM]	8%	1.8	x
COc1ccc(C(=O)Cn2nc(CNc3ccc(Br)cc3)[n+]3c2CCCCC3)cc1	-11%	-12	5	-16%[15.4 µM]	5%	13	x
CCCn1c(NC(=O)c2cccc(C)c2C)nc2ccccc21	13%	-1	-12	0%	2%	-0.2	2.7%
Cc1cc(C(=O)COC(=O)c2ccc(N)c([N+](=O)[O-])c2)c(C)n1Cc1ccc2c(c1)OCO2	11%	0	-5	-30%[inhibitor]	5%	2.6	-1.0%
Cc1ccc(CNC(=O)c2ccc(S(=O)(=O)N(C)C)cc2)n1C	11%	6	23	28%[15.4 µM]	14%	0.6	x
COC(=O)C1=C(C)N(Cc2ccc(OC)cc2)C(=O)/C1=C\c1ccco1	-9%	-13	x	u	0%	6.6	x
CCOC(=O)CC/C(=N\NC(N)=O)c1ccc(OC)c(Cl)c1	x	-8	-5	21%	2%	x	-3.1%
COc1cc(O)oc1C=Nc1ccccc1	u	7	-6	2%	11%	2.7	-1.9%
CCNS(=O)(=O)c1ccc(CCC(=O)NCc2ccccc2)cc1	-6%	8	2	-49%[inhibitor]	4%	1.9	x
CN(C)c1ccc(/C=N/N2CCN(c3ccccn3)CC2)cc1	10%	x	u	10%	4%	5.6	-5.2%
COc1cc(CN2C(=O)C(NC(=O)c3ccco3)(C(F)(F)F)C3=C2CC(C)(C)CC3=O)cc(OC)c1 (stereo not given)	14%	0	-6	-3%	12%	3.2	1.3%
Cc1ccc(C[n+]2cccc(-c3ccccc3)c2)c(C)c1	10%	-5	3	19%	9%	9.3	-3.2%

Compound profiles (already shown). Values in the order: Sfp PPTase inh | CtBP-E1A blk | TRPV1 potentiator | gsp ag | gsp antagonist | Menin-MLL FL inh | ClpP mod
CN(C)c1ccc(/C=N/N2CCN(c3ccccn3)CC2)cc1 as listed: 10% | x | u | 10% | 4% | 5.6 | -5.2%
CCCCNC(=S)Nc1ccc2nc(N3CCN(CC)CC3)cc(C)c2c1 as listed: -13% | -8 | -12 | 19%[15.4 µM] | 8% | 1.8 | x
CCCn1c(NC(=O)c2cccc(C)c2C)nc2ccccc21 as listed: 13% | -1 | -12 | 0% | 2% | -0.2 | 2.7%
COc1ccc(CNC(=O)c2cc(-c3cc(C)ccc3O)n[nH]2)cc1 as listed: -18% | 5 | -8 | -7% | -3% | 6.8 | x

Returning to the listing with the 4 entries that preceded the break.
SMILES	Sfp PPTase inh	CtBP-E1A blk	TRPV1 potentiator	gsp ag	gsp antagonist	Menin-MLL FL inh	ClpP mod
CCNS(=O)(=O)c1ccc(CCC(=O)NCc2ccccc2)cc1	-6%	8	2	-49%[inhibitor]	4%	1.9	x
CN(C)c1ccc(/C=N/N2CCN(c3ccccn3)CC2)cc1	10%	x	u	10%	4%	5.6	-5.2%
COc1cc(CN2C(=O)C(NC(=O)c3ccco3)(C(F)(F)F)C3=C2CC(C)(C)CC3=O)cc(OC)c1 (stereo not given)	14%	0	-6	-3%	12%	3.2	1.3%
Cc1ccc(C[n+]2cccc(-c3ccccc3)c2)c(C)c1	10%	-5	3	19%	9%	9.3	-3.2%
O=C1CSc2ccc(C(=O)O)cc2N1	3%	0	-1	28%	-1%	-2.3	x
N#CC1=C(N)Oc2n[nH]c(-c3cccs3)c2C1c1cccnc1 (stereo not given)	-3%	-3	14	-20%	-9%	3.7	0.6%
Cc1cc(Br)cc2cn[nH]c12	25%	2	-26	8%[15.4 µM]	2%	-0.4	x
COc1cccc(NC(=O)N2C3CCCC2CC(NC(C)=O)C3)c1 (stereo not given)	-3%	13	4	-4%	19%	-1.2	1.0%
CC1(C)CC(NC(=O)COc2cc3oc(=O)c4c(c3cc2Cl)CCC4)CC(C)(C)N1	-7%	-24	-5	u	16%	x	-26%
Cc1ccc(N2CC(C)Cn3c2nc2c3c(=O)[nH]c(=O)n2C)cc1 (stereo not given)	3%	-7	2	17%	-6%	-5.9	-7.7%
COc1cc(C2C3=C(COC3=O)OC(C)(C)Oc3cc4c(cc32)OCO4)cc(OC)c1OC (stereo not given)	x	0	x	19%	28%	x	0.5%
Cc1cc(Cl)c(S(=O)(=O)NC2CCCCC2)cc1OCC(=O)Nc1nncs1	-3%	-13	u	-50%	-2%[15.4 µM]	-1.2	-3.6%
CC(C)COc1ccc(-c2nn(-c3ccccc3)cc2CO)cc1	16%	x	-10	u	-7%	2.2	-17%
CC1C(=O)N2CCCc3cc(NS(C)(=O)=O)cc1c32 (stereo not given)	14%	x	-4	-1%	1%	-3.1	-0.1%
Cc1ccc2nc3c(cc(C#N)c(=O)n3-c3nccs3)c(=O)n2c1	-15%	-9	-7	16%	1%	u	2.5µM*
CCOC(=O)C1=C(C)NC(SC)=C(C#N)C1CC(C)C (stereo not given)	3%	10	-21	-13%[15.4 µM]	14%	-1.6	x
O=C(NCCN1CCOCC1)c1cc(=O)[nH]c2ccc(Br)cc12	8%	-1	14	-10%	-5%	1.6	-3.7%
O=C(NCc1ccc(F)cc1)C1CCCN1S(=O)(=O)c1cccc2nsnc12 (stereo not given)	13%	3	-5	15%	5%	-1.1	0.1%
Cc1ccc(S(=O)(=O)NNC(=O)Nc2ccccc2F)c(C)c1	12%	4	-7	-7%	-4%	x	-0.4%
Cc1ccc(OCCCCNC2CCCCC2)c(C)c1	-10%	-2	7	-5%	17%	1.8	-1.2%
OC(COCc1ccccc1)Cn1cnc2ccccc21 (stereo not given)	9%	0	11	-31%[inhibitor]	9%	0.5	-3.1%
NC(=S)Nc1cccc2cc3ccccc3cc12	u	u	-9	-31%[inhibitor]	-4%	u	-6.3%
CCNC(=O)COc1ccc(S(=O)(=O)Nc2ccccc2)cc1	16%	-1	11	-4%	7%	3.1	-0.2%
O=C(Nc1ccc2c(c1)OCCO2)c1cccc(Cl)c1	-4%	2	3	5%[15.4 µM]	-3%	-6.3	0.3%
CCc1c(C(=O)Nc2ccc(OC)cc2)[nH]c(C)c1C(C)=O	-11%	-24	-5	-7%	-13%	1.4	-2.3%
CCc1cc(C(=O)N(CC)CC(=O)Nc2c(F)cccc2F)sc1C	x	6	x	-14%	x	x	-1.4%
Cc1cccc(COc2ccccc2/C=N/Nc2ccc([N+](=O)[O-])cc2)c1	25%	-4	19	-19%	1%	u	-22%
N#Cc1cnn(-c2ccccc2)c1NC(=O)CN1CCN(c2ccccc2)CC1	9%	-3	6	-3%[15.4 µM]	6%	-1.5	x
Oc1cccc2ccc(/C=C/c3ccccc3Br)nc12	-7%	11	7	u	-5%	-0.3	x
CC(=O)N1CCCc2cc(S(=O)(=O)N(C)Cc3ccccc3)ccc21	-3%	-1	x	u	u	-1.6	2.6%
O=c1[nH]c(-c2ccc3c(c2)OCO3)nc2c1sc(=S)n2-c1ccccc1	12%	4	19	-9%[15.4 µM]	-3%	-1.0	x
CC(C)(C)OC(=O)C[C@H]1C/C=C\C[C@@H](CC(=O)N[C@H](CO)Cc2ccccc2)C(=O)NC[C@@H](c2ccccc2)OC1=O	x	6	x	-17%	-3%	x	-0.2%

Part of the list above in order of length of the SMILES, highest first:
SMILES	Sfp PPTase inh	CtBP-E1A blk	TRPV1 potentiator	gsp ag	gsp antagonist	Menin-MLL FL inh	ClpP mod
CC(C)(C)OC(=O)C[C@H]1C/C=C\C[C@@H](CC(=O)N[C@H](CO)Cc2ccccc2)C(=O)NC[C@@H](c2ccccc2)OC1=O	x	6	x	-17%	-3%	x	-0.2%
N#Cc1cnn(-c2ccccc2)c1NC(=O)CN1CCN(c2ccccc2)CC1	9%	-3	6	-3%[15.4 µM]	6%	-1.5	x
Cc1ccc(S(=O)(=O)NNC(=O)Nc2ccccc2F)c(C)c1	12%	4	-7	-7%	-4%	x	-0.4%

Taken from above.
ClpP mod with COc1cccc(NC(=O)N2C3CCCC2CC(NC(C)=O)C3)c1 (stereo not given) = 1.0%
Sfp PPTase inh with Oc1cccc2ccc(/C=C/c3ccccc3Br)nc12 = -7%

Outcome played no part in choosing rows; about 5.3% have a hit in one of these screens.
